D2 ag: Beta-Arrestin HTS for Positive Allosteric Modulators of the Human D2 Dopamine Receptor: Agonists; DiscoveRx PathHunter D2 beta-arrestin, luminescence, 90 min; 100% = 57 uM dopamine signal; activation, % (test concentration not listed); 0.084% of 360,000 active; AID 624465, 2012; in the data active = activation above about 40%; inconclusive = about 15% to 40%; inactive = below about 15%; also: compound concentration not given in the record; the text of the record calls up to 30% inactive
Target sequence (P14416 whole entry, looked up): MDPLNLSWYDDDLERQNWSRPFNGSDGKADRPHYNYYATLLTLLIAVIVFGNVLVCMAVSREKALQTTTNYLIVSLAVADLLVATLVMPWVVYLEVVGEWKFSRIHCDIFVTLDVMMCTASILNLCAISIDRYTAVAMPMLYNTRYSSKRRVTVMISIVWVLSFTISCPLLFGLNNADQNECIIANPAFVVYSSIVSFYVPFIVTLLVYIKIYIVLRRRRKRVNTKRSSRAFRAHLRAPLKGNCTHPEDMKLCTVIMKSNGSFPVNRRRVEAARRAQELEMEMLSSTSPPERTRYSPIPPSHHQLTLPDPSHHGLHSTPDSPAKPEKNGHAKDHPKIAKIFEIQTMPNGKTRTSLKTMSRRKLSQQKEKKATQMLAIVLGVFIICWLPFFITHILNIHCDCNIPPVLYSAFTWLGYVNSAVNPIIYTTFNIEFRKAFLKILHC
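DiscoveRx PathHunter D2 beta-arrestin cells (2,100/well) attached overnight, then compound-stimulated 90 min at 37 C in HBSS/10 mM HEPES/0.1% Tween-20 buffer; beta-galactosidase complementation read by luminescence after 1 h at ambient temperature. Dopamine 57 uM final (EC100) as control.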
D2 potentiator: Beta-Arrestin HTS for Positive Allosteric Modulators of the Human D2 Dopamine Receptor: Potentiators; DiscoveRx D2 beta-arrestin cells, luminescence, 90 min; 100% = 57 uM dopamine signal; AID 624464, 2012; D(2) dopamine receptor (Homo sapiens), P14416; potentiation, % (concentration not given with the values); 0.23% of 360,000 active; active = potentiation of 50% or more; inconclusive = 30% to 50%; inactive = 30% or less;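 also: compound concentration not given in the record; tested on top of an EC20 dose of dopamine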
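D2 cells co-treated with compound plus 50 nM dopamine (EC20) for 90 min at 37 deg C to detect potentiation. Beta-arrestin recruitment was read as enzyme-fragment luminescence after 1 h at ambient temperature. Full response was set by 57 uM dopamine.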
PINK1 expr mod: A Quantitative High throughput Screen to Identify Chemical Modulators of PINK1 Expression. PINK1 immunofluorescence, high-content cytometry, 24 h. 0.2% of 410,000 active. AID 624263, 2012. Potency, µM (titrated, usually from 76.6 µM), for the others: at the highest dose activation (PINK1 increase), usual class: activators; active = well fitted activation curve with a large enough effect; inconclusive = small, poorly fitted or top-dose-only effect; inactive = flat fitted curve, though single readings scatter; cell line not stated here;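 also: potency is read from the fitted curve at half-maximal effect; % of control where 0% means no effect; nearly all actives have a fitted effect of over 65% in size; a mitochondrial uncoupler was the plate control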
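Stable cell line treated 24 h with compounds at 5 concentrations (CCCP controls), then fixed and immunostained for PINK1 plus nuclear and cell stains; PINK1 immunofluorescence quantified by laser-scanning microplate cytometry.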
Six1-Eya2 blk: qHTS Assay for Inhibitors of the Six1/Eya2 Interaction. AlphaScreen GST-Six1/His-Eya2 binding, biochemical; hits give low values; control for the full effect not named in the record. Homeobox protein SIX1 (Homo sapiens) + Protein phosphatase EYA2 (Homo sapiens), …. 0.56% of 360,000 active. AID 651725, 2012. activity change, % (test concentration not listed); in the data active = activity change below about -65%; inconclusive = about -30% to -65%; inactive = above about -30%; also: % is scaled to controls: 0 for no effect and ±100 for the full control effect; compound concentration not given in the record
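GST-Six1 + His-Eya2 (5X stock: 250/500 nM); Tris pH 8.0, 300 mM NaCl, 0.05% BSA, 0.02% Tween 20; GSH donor/Ni acceptor beads; 1 h 37 °C dark; AlphaScreen readout.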
TRPML1 inh: qHTS for Inhibitors of the Human Mucolipin Transient Receptor Potential 1 (TRPML1); Mucolipin-1 (Homo sapiens), Q9GZU1; TRPML1-inducible cells, Ca2+ dye fluorescence, FDSS; hits give low values; inhibition of EC80 agonist-evoked calcium signal; activity change, negative = inhibition, % (concentration not given with the values); 0.02% of 390,000 active; AID 624415, 2012; in the data active means activity change below about -50%; inconclusive means about -30% to -50%; inactive means above about -30%;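 also: stimulus is agonist 54-4 at its EC80 concentration; % is scaled to controls: 0 for no effect and ±100 for the full control effect; compound concentration not given in the record; the text of the record puts the active cut at -80%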
Target sequence (Q9GZU1 whole entry, looked up): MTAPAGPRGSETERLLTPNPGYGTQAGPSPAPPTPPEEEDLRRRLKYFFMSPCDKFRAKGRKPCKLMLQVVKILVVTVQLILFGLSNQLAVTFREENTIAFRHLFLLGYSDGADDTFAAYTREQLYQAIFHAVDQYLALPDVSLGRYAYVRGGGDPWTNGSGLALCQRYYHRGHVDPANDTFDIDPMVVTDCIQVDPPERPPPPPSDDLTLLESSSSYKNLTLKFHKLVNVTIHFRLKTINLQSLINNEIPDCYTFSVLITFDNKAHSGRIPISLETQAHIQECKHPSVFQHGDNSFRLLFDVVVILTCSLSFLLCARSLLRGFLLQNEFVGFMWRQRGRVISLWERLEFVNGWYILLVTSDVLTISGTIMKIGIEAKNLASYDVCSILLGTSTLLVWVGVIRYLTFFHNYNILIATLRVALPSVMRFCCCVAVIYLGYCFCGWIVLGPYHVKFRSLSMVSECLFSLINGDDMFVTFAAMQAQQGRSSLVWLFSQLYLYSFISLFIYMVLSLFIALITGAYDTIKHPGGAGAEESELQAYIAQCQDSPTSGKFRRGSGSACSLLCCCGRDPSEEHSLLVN
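Calcium fluorescence in TRPML1-DL cells induced overnight with Tet: a 110 s read after compound pin addition, then a 110 s antagonist read after challenge with 54-4 at 4 uM final (EC80).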
TRPML1 agonist: qHTS for Agonists of the Human Mucolipin Transient Receptor Potential 1 (TRPML1); Mucolipin-1 (Homo sapiens), Q9GZU1; activation, % (concentration not given with the values); TRPML1-expressing cells, Ca2+ dye fluorescence, FDSS; host cell line not named in the record; reference of the full effect not given here; 0.12% of 410,000 active; in the data active = activation above about 50%; inconclusive = about 30% to 50%; inactive = below about 30%; also: 0% is about no effect; the text of the record puts the active cut at 80%
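Cells: TRPML1-DL, 1X Tet inducer, ~16 h at 37 degrees C/5% CO2. Dye: ABD Ca8 no-wash + quencher, 45-90 min RT. Read: 10 s baseline, compound add, 110 s agonist phase; 54-4 EC80 (4uM final), 110 s antagonist phase.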
The depositor's hits bear a star; ? = inconclusive; . = no result given; & = joins results of further samples; [ ] = dose if it differs, or a comment.

item	mol	D2 ag	D2 potentiator	PINK1 expr mod	Six1-Eya2 blk	TRPML1 inh	TRPML1 agonist
1	Cc1ccc(NC(=O)N(O)C2CCCCC2C#N)cc1 (configuration not stated)	1.0	-7	-1.7%	-2	28	-0.1
2	Cc1ccnc(NC(=O)CCC(=O)N(CC(=O)NC2CCCCC2)c2ccc3c(c2)OCO3)c1	-1.8	-6	0.4%	9	-17	0.3
3	O=C1CN(C(=O)CN2CCN(S(=O)(=O)c3ccccc3)CC2)c2ccccc2N1	-2.4	3	-0.6%	-2	-4	-0.8
4	O=C(Nc1ccc(CN2CCOCC2)cc1)c1ccccc1F	-2.7	-4	0.6%[38.3 µM]	2	33	0.2
5	Cc1ccc(OCC(=O)Nc2ccccc2C(=O)OCc2cc(=O)n3ccsc3n2)cc1	.	.	-1.5%	.	-17	0.9
6	CCOc1ccc(S(=O)(=O)NC(C)C(=O)NCc2ccncc2)cc1 (configuration not stated)	-2.0	-5	0.0%	5	4	0.5
7	CNC(=O)c1ccc(NC(=O)Nc2ccccc2)cc1	0.0	8	0.4%	-2	.	.
8	CC(=O)Nc1ccc(S(=O)(=O)Nc2nc(C)nc3sc4c(c23)CCC4)cc1	-0.8	-9	0.5%	-17	1	-0.6
9	CCN(CC)c1ccc(NC(=O)c2ccc(=O)[nH]c2)cc1S(=O)(=O)Nc1ccccc1OC	1.5	-3	6.4%	-24	-2	1.5
10	COc1ccc(CNC(=O)C2CCN(C(=O)c3cccc(Cl)c3)CC2)cc1	-0.5	9	-2.0%	0	1	-0.5
11	CCOc1ccc(Cl)cc1-c1cc(C(=O)NCc2cccs2)[nH]n1	-0.3	-16	-0.4%	-4	.	-0.8
12	Clc1ccc(-c2nc3ccccc3nc2-c2ccccc2)cc1	-0.5	1	20%	9	-28	0.3
13	CCCc1c(C(=O)N/N=C/c2ccco2)nnn1-c1nonc1N	-4.6	-22	-1.1%	5	10	-0.1
14	O=C(c1cccc(OCc2ccccc2)c1)N1CCOCC1	-0.9	-8	1.2%	-10	-15	0.6
15	CCCOc1ccc(-c2cnc(N)s2)cc1	-1.4	-21	34%[38.3 µM]	-4	10	-0.3
16	COc1cccc(Cn2c(=O)n(CC3CCC(C(=O)N4CCOCC4)CC3)c(=O)c3sccc32)c1 (configuration not stated)	.	.	0.2%	.	-6	1.2
17	NS(=O)(=O)c1cccc(NC(=O)COC(=O)Cc2ccc(S(=O)(=O)N3CCCCC3)s2)c1	-3.2	-1	-0.2%	-1	20	0.2
18	O=C(/C=C/Nc1ccc(F)cc1F)c1cccs1	-0.4	-17	1.7%	-1	3	2.3
19	O=c1c(Cc2ccc(Cl)cc2Cl)c(O)ccn1CC(F)(F)F	-15	0	-0.2%	5	.	.
20	CCC(=O)n1nc(-c2cccnc2)nc1NCc1ccc(OC)cc1	2.4	-3	-1.5%	7	44	1.9
21	O=C(c1cc(S(=O)(=O)N2CCOCC2)ccc1Cl)N1CCc2ccccc2C1	0.3	-16	-1.3%	-4	-4	1.3
22	CC[C@@]1(C(=O)OC)N[C@H](CN(C)S(=O)(=O)c2ccccc2)[C@@H]2C(=O)N(C)C(=O)[C@@H]21	-1.2	0	1.1%	6	3	-0.2
23	COc1ccc(CCNC(=O)CNC(=O)c2ccc3c(c2)OCO3)cc1OC	-3.5	-4	0.7%	5	-11	0.2
24	Cc1ccc(C(=O)NC(C)c2ccc(-n3ccnc3)cc2)c(C)c1 (configuration not stated)	1.3	-6	0.1%	2	-2	-0.4
25	O=C(CCSc1nnc(-c2ccncc2)o1)Nc1cccc2ccccc12	-7.2	-5	0.8%	-2	-6	0.7
26	CCOC(=O)NC(CC(=O)O)c1ccc(OCC)cc1 (configuration not stated)	2.7	-4	3.8%[38.3 µM]	6	8	0.8
27	Nc1cc(SCc2ccc(Cl)cc2Cl)ncn1	0.6	-4	2.2%	-2	3	0.2
28	O=C(c1ccc2c(c1)N(Cc1ccc(F)cc1)C(=O)c1ccccc1S2=O)N1CCC(Cc2ccccc2)CC1 (configuration not stated)	.	.	-0.3%	.	-1	0.6
29	N#Cc1ccc(C(=O)Nc2nnc(-c3cccs3)o2)cc1	-4.2	-9	4.5%	-12	2	-0.2
30	Cc1cc(C(=O)CCC(=O)NC(C)c2ccc(S(N)(=O)=O)cc2)c(C)s1 (configuration not stated)	-0.6	21	1.1%	5	0	0.3
31	O=C(Nc1ccc(Cn2nnc3ccccc32)cc1)c1ccco1	3.1	-3	13%[38.3 µM]	-17	12	0.6
32	O=C(O)C1CCN(Cc2cnn(-c3ccccc3)c2-n2cccc2)CC1	-3.4	0	1.3%[38.3 µM]	0	10	-0.4
33	COCCNC(=O)C1(C)CCCN(C(=O)c2ccc(OC)c(OC)c2)C1 (configuration not stated)	-3.4	2	1.5%	3	.	-0.7
34	O=C(O)CC(NCc1ccco1)C(=O)OCCCl (configuration not stated)	1.5	-2	0.4%	6	3	-0.9
35	O=C(NCC1CCCO1)c1cc(-c2ccccc2)on1 (configuration not stated)	-1.8	-3	.	0	-3	0.1
36	Cc1ccc(-c2nc(S(=O)(=O)c3ccc(C)cc3)c(SCC(=O)Nc3ccc(F)cc3)o2)cc1	.	.	0.5%	.	18	1.8
37	CCOc1ccc(C(=O)c2nc3c(n2O)CCCCC3)cc1	-4.3	-10	4.1%	-1	-23	0.5
38	Cc1ccccc1N=Cc1ccc[nH]1	1.1	-3	-4.6%	5	4	1.4
39	N#C/C(=C\c1ccc(F)c(Cl)c1)S(=O)(=O)c1ccccn1	0.1	0	0.8%	6	-10	-0.3
40	O=c1cc(N2CCN(Cc3ccccc3)CC2)[nH]c(=O)n1Cc1ccc(F)cc1	0.8	-2	8.2%[38.3 µM]	3	5	0.4
41	COc1cc(OC)c(-n2c(C)cc(C=O)c2C)cc1Cl	3.3	-6	?	-10	-14	2.2
42	COC(=O)C(Cc1ccc(OC(=O)c2ccc(C)cc2)cc1)N1Cc2ccccc2C1=O (configuration not stated)	1.5	-23	1.6%	-1	-11	-0.6
43	CCc1ccc(CNC(=O)c2nn(C)c3c2CS(=O)(=O)c2ccccc2-3)cc1	-3.9	-10	-1.8%	3	0	-1.3
44	CC(C)(C)c1ccc(COC(=O)Nc2ccc(F)cc2)cc1	4.7	-3	9.7%	-1	26	0.0
45	CCN(c1ccccc1)S(=O)(=O)c1ccc(C(=O)NCCc2ccc(S(N)(=O)=O)cc2)cc1	3.2	-2	4.1%	-5	-9	0.7
46	CCN(CC)CP(=O)(c1ccccc1)c1ccccc1	1.3	-6	-1.6%	-1	7	-0.1
47	COc1ccc(OCCSCc2nnc(NC(=O)Nc3ccc(Cl)cc3)s2)cc1	-0.9	-2	14%	-3	-1	0.3
48	O=c1cc2ncc(-c3[nH]ncc3[N+](=O)[O-])cn2[nH]1	-7.6	-14	0.2%	-6	.	.
49	O=C1CCCc2c1[nH]c1ccc(Br)cc21	1.0	-18	-1.9%	-2	-1	1.1
50	CN(C(=O)Cn1nnc(-c2cccc(C(F)(F)F)c2)n1)C1CCCCC1	-2.1	-10	2.9%	0	-7	-0.2
51	CC(=O)c1ccc(NC(=O)c2nc3nc(C)cc(C(F)F)n3n2)cc1	.	.	3.8%	.	8	-0.2
52	CCOc1ccc(/C(O)=C2/C(=O)C(=O)N(CCOCCO)C2c2ccccn2)cc1 (configuration not stated)	-2.7	-6	7.8%[38.3 µM]	3	14	-0.7
53	CCOc1ccc(-c2nc(CSCC(=O)NCCc3ccccc3)c(C)o2)cc1	.	.	-0.5%	.	-1	2.0
54	Cc1cc(C)c2c(=O)cc(C(=O)Nc3ccccc3Cl)oc2c1	.	.	2.7%	.	6	0.2
55	COc1ccccc1N1CCN(C(=O)CCn2c(=O)[nH]c3ccsc3c2=O)CC1	0.2	-12	-2.9%	-2	-7	0.7
56	S=C1NCCN1CC1CCN(CCC23CC4CC(CC(C4)C2)C3)CC1	-4.2	-16	1.1%	1	0	0.6
57	CCCC[C@@H]1CCCO[C@@](C(=O)NCc2ccc(C)o2)(C(F)(F)F)C1	0.1	-3	5.6%	0	-12&-4	1.3&0.5
58	C#CCNC(=O)C[C@@H]1C[C@@]2(C(=O)OC)CCCCC=C2N(Cc2ccccc2)C1=O	.	.	0.0%	-4	.	-0.5
59	CS(=O)(=O)c1ccc(C(=O)Nc2ccc(N3CCCCC3)cc2)c(Cl)c1	-2.4	-14	13%	12	19	2.0
60	Cc1cccc(-n2ccnc2CN2CCC(CO)(Cc3ccccc3)CC2)c1	-1.3	-6	14%	2	10	-0.2

(continued)
item	mol	D2 ag	D2 potentiator	PINK1 expr mod	Six1-Eya2 blk	TRPML1 inh	TRPML1 agonist
61	CCOc1ccccc1OCc1nn2c(COc3ccccc3)nnc2s1	-3.0	-13	6.0%[38.3 µM]	0	35	2.6
62	CCN(CC)CCN(Cc1cc2cc3c(cc2[nH]c1=O)OCCO3)C(=S)NC	-3.3	-23	-0.4%	6	23	0.2
63	Cc1sc2nc(CSc3ccccc3)nc(N3CCOCC3)c2c1C	-0.4	2	-0.2%	10	-5	0.9
64	CN(C)S(=O)(=O)c1ccc(N2CCCC2)c(C(=O)OCC(=O)NC2(C#N)CCCCC2)c1	-7.7	-7	2.8%	7	-5	-0.9
65	CCc1c(C)nc2nncn2c1NCc1ccccc1	.	.	-0.1%	.	6	0.1
66	COc1ccc(N2C(=O)CN=C2Nc2nc(C)cc(C)n2)cc1OC	-0.7	-6	28%[38.3 µM]	4	21	0.6
67	Cn1c2ccccc2n2c(=O)c(=O)n(CC(=O)c3ccc(F)cc3)nc12	0.4	-9	2.3%[38.3 µM]	-15	1	0.1

High-throughput results from PubChem.
